Assay outcomes as filed in PubChem BioAssay.
gsp antag = gsp mutant antagonism | gsp-mutant cells, cAMP HTRF, 30 min; control for the full effect not named in the record | Potency, µM (titrated, usually from 76.9 µM), for inactives: top-dose activity change, negative = inhibition, actives largely listed as inhibitors | 340,000 compounds, 0.4% hits | AID 624288; active = falling curve of any shape with a large fitted effect; inconclusive = falling curve, mostly with a smaller effect; inactive = flat or rising curve; cell line not stated here;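 note: intracellular cAMP measured with PDE inhibitor Ro 20-1724 present during compound exposure; potency is the fitted concentration of half-maximal effect; % is set by controls: 0 for no effect and ±100 for the full control effect; nearly all actives have a fitted effect of over 65% in size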
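G418-selected cells were plated in DMEM/10% FBS for 16-24 h at 37C, then treated with compounds plus the PDE inhibitor […] (300 uM solution added) for 30 min at 37C. Intracellular cAMP was measured by HTRF after 30 min lysis at room temperature.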
Six1-Eya2 blk = Six1/Eya2 interaction inhibition; AlphaScreen GST-Six1/His-Eya2 binding, biochemical; active compounds read low; control for the full effect not named in the record; activity change, % (concentration not given with the values); 360,000 compounds, 0.56% hits; AID 651725; in the data active = activity change below about -65%; inconclusive = about -30% to -65%; inactive = above about -30%; note: % is set by controls: 0 for no effect and ±100 for the full control effect
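AlphaScreen luminescence read after one hour at 37 °C in darkness. Pin-transferred compounds met GST-Six1 and His-Eya2 protein (5X stock 250 nM/500 nM) plus glutathione donor and Ni-chelate acceptor beads (5X, 50 ug/mL).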
D2 agonist = activates the human D2 dopamine receptor; P14416; DiscoveRx PathHunter D2 beta-arrestin, luminescence, 90 min; 100% = 57 uM dopamine signal; activation, % (no concentration beside the values); 360,000 compounds, 0.084% hits; AID 624465; in the data active = activation above about 40%; inconclusive = about 15% to 40%; inactive = below about 15%; note: compound concentration not given in the record; the text of the record calls up to 30% inactive
Target sequence (P14416 whole entry, looked up): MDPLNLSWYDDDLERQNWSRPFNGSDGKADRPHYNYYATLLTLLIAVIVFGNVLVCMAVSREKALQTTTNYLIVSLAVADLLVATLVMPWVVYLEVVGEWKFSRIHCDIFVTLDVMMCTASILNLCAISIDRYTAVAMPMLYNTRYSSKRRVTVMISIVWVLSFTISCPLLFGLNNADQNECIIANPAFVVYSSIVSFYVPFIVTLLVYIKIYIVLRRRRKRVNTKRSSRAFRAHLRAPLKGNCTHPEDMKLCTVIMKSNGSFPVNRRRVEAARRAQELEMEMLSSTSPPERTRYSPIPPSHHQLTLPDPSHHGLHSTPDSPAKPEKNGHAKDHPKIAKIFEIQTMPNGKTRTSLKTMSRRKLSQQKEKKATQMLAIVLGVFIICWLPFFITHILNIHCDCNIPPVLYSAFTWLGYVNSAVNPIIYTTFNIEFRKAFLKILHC
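DiscoveRx PathHunter D2 beta-arrestin cells (2,100/well) attached overnight, then compound-stimulated 90 min at 37 C in HBSS/10 mM HEPES/0.1% Tween-20 buffer; beta-galactosidase complementation read by luminescence after 1 h at ambient temperature. Dopamine 57 uM final (EC100) as control.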
CtBP-E1A blk = CtBP/E1A binding inhibition | AlphaScreen GST-E1A/His-CtBP binding, 1536-well; active compounds read low; control for the full effect not named in the record | activity change, % (no concentration beside the values) | 340,000 compounds, 0.49% hits | AID 651724; in the data active means activity change below about -65%; inconclusive means about -30% to -65%; inactive means above about -30%; note: % is set by controls: 0 for no effect and ±100 for the full control effect
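Steps: dispense buffer (Tris pH 8.0, NaCl 300 mM, TCEP 1 mM, BSA, Tween 20); add 5X protein mix (GST-E1A, His-CtBP, 125 nM each); pin 23 nL compound; 2 h at 37 °C, dark; add 5X beads (50 ug/mL); 1 h; read.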
gsp ag = agonists of gsp mutant (McCune-Albright syndrome). gsp mutant cells, cAMP HTRF, 30 min; control for the full effect not named in the record. 340,000 compounds, 0.13% hits. Potency, µM (top dose mostly 76.9 µM), for inactives: at the top dose activation (cAMP increase), actives largely listed as activators; active = well fitted activation curve with a large enough effect; inconclusive = small, poorly fitted or top-dose-only effect, or another doubt; inactive = no such curve, though single readings can be large or run the other way; cell line not stated here;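 note: phosphodiesterase inhibitor Ro 20-1724 added with compounds to block cAMP breakdown; potency is the fitted concentration of half-maximal effect; nearly all actives have a fitted effect of over 60% in size; about a fifth of the inactives were tested at one dose only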
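Cells in DMEM/10% FBS with G418 were pretreated with compounds in DMSO plus […] (300 uM stock) for 30 min at 37C. cAMP was measured by HTRF (cAMP-d2 plus anti-cAMP antibody-K) after 30 min at room temperature.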
D2 potentiator = positive allosteric modulators of human D2 dopamine receptor; DiscoveRx D2 beta-arrestin cells, luminescence, 90 min; 100% = 57 uM dopamine signal; potentiation, % (no concentration beside the values); 360,000 compounds, 0.23% hits; active = potentiation of 50% or more; inconclusive = 30% to 50%; inactive = 30% or less;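 note: compound concentration not given in the record; tested on top of an EC20 dose of dopamine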
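PathHunter beta-arrestin assay in DiscoveRx D2 cells. Compounds were added with an EC20 of dopamine (50 nM final) for 90 min at 37 deg C. Luminescence was read 1 h after detection reagent, with 57 uM dopamine as the EC100 control.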
The depositor's hits bear a star; ? = inconclusive; nt = not tested or not shown; [ ] = dose if it differs, or a comment.

Values run as follows: gsp antag	Six1-Eya2 blk	D2 agonist	CtBP-E1A blk	gsp ag	D2 potentiator
C/C(=N\N=C1\NC(=O)CC(C(=O)O)S1)c1cccs1 (stereo not drawn)
    8%	2	0.4	8	9%	-11
Cn1c(=O)c2cc(NC(=O)Nc3cccnc3)ccc2n1-c1ccc(C(C)(C)C)cc1
    nt	-13	7.3	7	nt	-4
CC(=O)Nc1ccc2c(c1)C(=Nc1ccc(C)cc1)c1ccccc1-2
    1%	?	-3.2	-22	-1%[15.4 µM]	-11
Cc1ccc(S(=O)(=O)NC(C)(C)CSc2nnc(N)s2)cc1
    -2%	-27	-2.8	14	7%	4
CCN(CC)S(=O)(=O)c1cc(C(=O)Oc2cccc(-c3cnc4ccccc4n3)c2)ccc1Br
    -11%	-11	-1.1	-1	-6%	-16
Cc1c(NC(=O)COC(=O)Cc2ccc(Cl)cc2)c(=O)n(-c2ccccc2)n1C
    3%	-4	-2.1	5	-16%	-4
O=C(c1ccc(F)cc1F)C1CCN(c2ccc([N+](=O)[O-])cn2)CC1
    -7%	-6	-2.7	0	-1%	-8
O=C1c2ccccc2C(Nc2ccc(F)c(Cl)c2)N1Cc1ccco1 (stereo not drawn)
    -31%	-4	-4.3	-13	-17%	-3
COc1ccc(C(=O)n2nc(-c3ccccc3)nc2SC)cc1
    -11%	-2	-0.9	-19	5%[15.4 µM]	-9
COc1ccc(NC(=O)CSc2c(C)n[nH]c2C)cc1
    2%	3	-3.6	1	-54%[inhibitor]	3
NNc1nc2c(F)cc(F)cc2s1
    -38%	-17	-5.6	4	-17%	-9
O=C(CNC(=O)Cc1ccccc1)NCC(=O)OCC(=O)c1ccccc1Cl
    -4%	4	-4.6	8	15%	-26
COc1ccc(/C=N/Nc2ccc(C(F)(F)F)cc2[N+](=O)[O-])cc1
    2%	-1	-2.4	-8	-27%	-12
O=C(NC1CCCC1)C(c1ccncc1)N(C(=O)c1csnn1)c1cccc(Cl)c1 (stereo not drawn)
    3%	-2	-2.8	6	-49%[inhibitor]	-7
CCCCC(=O)Nc1ccc(C(=O)NNC(=S)NC(=O)c2cccs2)cc1
    -16%	1	-3.7	-2	-11%[15.4 µM]	-3
CCN(CC)C(=O)[C@H]1C[C@H](CC(=O)NCc2ccc(OC)c(OC)c2)C(=O)N2CCc3c([nH]c4cc(-c5ccco5)ccc34)[C@]12C
    -25%	-24	4.1	-22	nt	nt
Cc1oc2cc(O)ccc2c(=O)c1-c1nncn1-c1ccccc1
    6%	-14	-2.0	-28	?	-1
COc1ccc(Cl)cc1NC(=O)NCc1ccc2c(c1)OCO2
    1%	2	-13	0	-31%[inhibitor]	-58
COc1ccccc1NS(=O)(=O)c1cc(NC(=O)C(C)NC(N)=O)ccc1N1CCCC1 (stereo not drawn)
    4%	2	-2.1	nt	12%	-18
COc1ccccc1CNC(=O)[C@H](C)NC(=O)C1CCN(C(=O)[C@@H](N)Cc2ccccc2)CC1
    9%	-3	3.9	3	nt	-12
C/C(=N\NC(=O)c1sccc1C)c1ccncc1
    6%	-5	-2.5	-12	?	-4
Cc1cc(Cn2nc(C(=O)NCc3cccc(Br)c3)cc2-c2ccccc2)on1
    -28%	0	3.3	0	nt	-63
Cc1cccc(NC(=S)N2CCN(c3ccccc3)CC2)c1
    2%	-4	1.4	0	3%	-4
COc1ccc2nc(CCN(C)C(=O)C3CCC(=O)N(Cc4cccc(F)c4)C3)[nH]c2c1 (stereo not drawn)
    1%	1	-2.8	2	-2%	-2
COc1cc(NC(=S)NCc2cccnc2)c(OC)cc1Cl
    1%	4	0.0	-16	-18%	-19
CCc1nc2ccc(C(=O)N3CCN(c4ccccc4)CC3)cn2c1N(CCC(C)C)CCN(C)C
    nt	-13	-3.6	-3	nt	-10
Cc1nc2nc(N)nc(OCc3ccccc3)c2nc1C
    14%	-3	-1.2	-3	2%[15.4 µM]	-8
COC(=O)C1=CN(Cc2cccs2)C=C(C(=O)OC)C1c1cccc(O)c1
    -17%	23	0.5	nt	12%[15.4 µM]	-4
CC1CCCC(NC(=O)c2ccc(CNc3c(N4CCCC4)c(=O)c3=O)cc2)C1C (stereo not drawn)
    -4%	4	-4.2	-5	-2%	-7
Cc1c(F)cccc1NC(=O)CSCC(=O)Nc1ccccc1
    3%	2	-3.3	0	-4%	-6
COc1ccc(C2C(C(C)=O)=C(O)C(=O)N2c2nccs2)cc1OC (stereo not drawn)
    7%	7	0.7	-15	5%	6
O=C(O)CC(c1ccc(Cl)cc1)n1cccc1 (stereo not drawn)
    -5%	0	1.0	1	-28%	?
COc1ccc(-n2nc3c(c2NC(=O)COc2ccccc2)CS(=O)(=O)C3)cc1
    -6%	0	-3.6	1	1%	-8
CCCCOC(=O)Nc1cc(C(=O)OC)ccc1C(=O)OC
    5%	13	0.1	4	-19%	-18
CCN(CC)C(=O)C1=C(C)N(CCC2=CCCCC2)C(=O)C(CC(=O)NCCc2ccccn2)C1 (stereo not drawn)
    nt	1	-3.4	-14	7%	nt
COc1cccc(NC(=O)COC(=O)c2ccccc2SCC(=O)N2CCCC2)c1
    -19%	-1	0.5	-3	6%	?
O=C(COC(=O)CNC(=O)c1ccco1)NCCN1C(=O)CSC1=O
    6%	0	1.4	-7	19%	-1
CCC1CC2(C)NC(=O)c3c(sc4c3CC(C)(C)OC4)N2C1=O (stereo not drawn)
    2%	-3	-4.2	-2	-11%[15.4 µM]	-2
O=C(Nc1ccc(NC(=O)c2ccc([N+](=O)[O-])cc2[N+](=O)[O-])cc1)c1ccco1
    7%	1	-0.9	0	2%[15.4 µM]	?
CCOc1ccccc1NS(=O)(=O)c1ccc2[nH]c(=O)ccc2c1
    10%	-8	0.8	-17	0%	-9
C=CCNc1nnnc2c1sc1nc(N3CCOCC3)c3c(c12)CCCC3
    -8%	-28	0.0	-17	?	9
O=C(NCCc1ccc(F)cc1)N[C@@H](Cc1ccccc1)C(=O)O
    11%	7	-4.4	1	-17%	3
CCCCN(C)C(=O)c1nc2ccccn2c1CN1CCC[C@H]1C(=O)OC
    20%	12	-2.4	4	6%[15.4 µM]	-4
Cc1ccccc1N(C)C(=O)c1coc(=O)c2ccccc12
    7%	8	-3.6	5	-5%	-7
O=C(Nc1nnc(CCN2CCOCC2)s1)c1ccccc1
    3%	-1	-2.2	4	-3%	-13

Twelve entries from above, ordered by SMILES length, ascending:
Values run as follows: gsp antag	Six1-Eya2 blk	D2 agonist	CtBP-E1A blk	gsp ag	D2 potentiator
O=C(O)CC(c1ccc(Cl)cc1)n1cccc1 (stereo not drawn)
    -5%	0	1.0	1	-28%	?
O=C(Nc1nnc(CCN2CCOCC2)s1)c1ccccc1
    3%	-1	-2.2	4	-3%	-13
CCCCOC(=O)Nc1cc(C(=O)OC)ccc1C(=O)OC
    5%	13	0.1	4	-19%	-18
Cc1ccccc1N(C)C(=O)c1coc(=O)c2ccccc12
    7%	8	-3.6	5	-5%	-7
CCOc1ccccc1NS(=O)(=O)c1ccc2[nH]c(=O)ccc2c1
    10%	-8	0.8	-17	0%	-9
CCC1CC2(C)NC(=O)c3c(sc4c3CC(C)(C)OC4)N2C1=O (stereo not drawn)
    2%	-3	-4.2	-2	-11%[15.4 µM]	-2
COc1ccc(C2C(C(C)=O)=C(O)C(=O)N2c2nccs2)cc1OC (stereo not drawn)
    7%	7	0.7	-15	5%	6
CCCCN(C)C(=O)c1nc2ccccn2c1CN1CCC[C@H]1C(=O)OC
    20%	12	-2.4	4	6%[15.4 µM]	-4
COc1cccc(NC(=O)COC(=O)c2ccccc2SCC(=O)N2CCCC2)c1
    -19%	-1	0.5	-3	6%	?
COc1ccc(-n2nc3c(c2NC(=O)COc2ccccc2)CS(=O)(=O)C3)cc1
    -6%	0	-3.6	1	1%	-8
CCN(CC)C(=O)C1=C(C)N(CCC2=CCCCC2)C(=O)C(CC(=O)NCCc2ccccn2)C1 (stereo not drawn)
    nt	1	-3.4	-14	7%	nt
O=C(Nc1ccc(NC(=O)c2ccc([N+](=O)[O-])cc2[N+](=O)[O-])cc1)c1ccco1
    7%	1	-0.9	0	2%[15.4 µM]	?

Next section
canonical_smiles	gsp antag	Six1-Eya2 blk	D2 agonist	CtBP-E1A blk	gsp ag	D2 potentiator
COc1ccc(N2CCN(C(=O)Nc3ccccc3C)CC2)cc1	10%	-5	-2.7	4	-34%	-3
Cn1cc(/C=N/NC(N)=S)c2ccccc21	-5%	-11	2.9	0	22%	-9
O=C(NN1CCOCC1)c1ccc(Cl)cc1	2%	-2	-5.2	4	?	-8
O=C(CSc1nnc(C2CC2)n1Cc1ccccc1)NCc1ccccc1	1%	-1	-4.2	5	-3%	-21
COCC(=O)Nc1cccc(Br)c1	0%	6	-0.9	8	-27%	13
COc1ccccc1CNC(=O)CN1CCC(n2cnc3cc(F)ccc32)CC1	-16%	-2	-1.0	nt	-9%	-10
O=c1cc(N2CCCCC2)c(-c2ccccc2)nn1Cc1ccc(F)cc1	-10%	-8	-4.8	-8	11%	-11
COc1cccc(-c2nnc(SCC(=O)NC3CCS(=O)(=O)C3)n2C)c1 (stereo not drawn)	15%	0	1.5	7	-22%	-14
CCOC(=O)c1c(O)c2cc(Cl)ccc2n(CC)c1=O	-6%	2	8.0	0	14%[15.4 µM]	16
CCNC(=S)N(CCc1c(C)[nH]c2ccc(C)cc12)Cc1cccs1	nt	-15	1.8	-18	-3%[15.4 µM]	-1
Cc1cccc(C)c1NC(=O)c1ccc(-c2ccc(Cl)cc2Cl)o1	-22%	2	-2.0	-2	0%	6
COC(=O)c1ccc(C23CC4(C2)[C@H](CN(Cc2ccc(-c5ccccc5)cc2)[C@@H]4c2ccccc2)C3c2ccccc2)cc1 (stereo partly drawn)	-8%	11	-3.9	nt	16%	-11
CCc1nc(SCC(=O)Nc2ccc(N(C)C)cc2)n[nH]1	?	3	9.6	-1	-11%[15.4 µM]	?
